# Assay outcomes as filed in PubChem BioAssay.
# Ecoli rRNA inh: reduced GFP signal of wild-type E. coli, primary screen, bacterial rRNA inhibitor project, GFP/RFP fluorescence, OD600, single point; GFP signal change (wild-type ribosome), % (no concentration beside the values); 1.6% of 350,000 active; E. coli WT GFP vs humanized-ribosome RFP mutants, 24 h; hits give low values; DMSO median 0, no signal -100;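 active means significant combined selectivity score with lowered wild-type GFP, culture density cut under 30%, mutant RFP and density less affected; inactive means any of these conditions unmet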; further: one replicate is shown; some compounds called inactive have numbers as strong as hits
# Ecoli rRNA inh OD600: further read-out of Ecoli rRNA inh, marked with its call; OD600 change, %; measured here: OD600 growth;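 optical density of the mix in the first replicate; 0 = DMSO median and -100 = no signal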
# Ecoli rRNA inh RFP: recorded beside Ecoli rRNA inh, whose call it bears; RFP signal change, %; measured here: RFP humanized mutant strains;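 first replicate; 0 = DMSO median and -100 = no signal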
# Active calls of the source: *; & = joins results of further samples. These rows are one share of the data. The share of hits here may be higher or lower than overall.
SMILES,Ecoli rRNA inh,Ecoli rRNA inh OD600,Ecoli rRNA inh RFP
COc1ccc(-c2ccc3c(c2)[C@H]2[C@H](CCN2S(=O)(=O)C2=NC(C)C=N2)[C@@H](CO)N3C)cc1 (stereo partly specified),-2,-5,2.5
C[C@H](CO)N1C[C@H](C)[C@H](CN(C)Cc2ccncc2)Oc2ccc(NC(=O)C3CC3)cc2C1=O,3,9,1.0
CC(C)NC(=O)N(C)C[C@@H]1Oc2cc(C#Cc3ccccn3)ccc2S(=O)(=O)N([C@H](C)CO)C[C@H]1C,0,2,-6.2
COc1ccccc1CNC(=O)Nc1nc(C(N)C(C)C)cs1 (stereo unspecified),8,12,2.1
C[C@@H]1CN([C@@H](C)CO)S(=O)(=O)c2ccc(-c3cccnc3)cc2O[C@@H]1CN(C)C(=O)CN(C)C,-2,2,1.7
CO[C@@H]1CN(C)C(=O)c2cc(NS(=O)(=O)c3ccc(F)cc3)ccc2OC[C@H](C)NC[C@@H]1C,1,1,0.7
C[C@H](O)C#Cc1ccc([C@@H]2[C@@H](CO)N3CCCCN(S(=O)(=O)c4ccccc4)C[C@@H]23)cc1,1,3,-4.7
CCNC(=O)C[C@H]1CC[C@@H]2[C@H](COC[C@@H](O)CN2Cc2ccncc2)O1,3,1,-5.6
COc1cccc(NC(=O)N(C)C[C@@H]2Oc3cc(/C=C/c4ccccc4)ccc3S(=O)(=O)N([C@@H](C)CO)C[C@@H]2C)c1,2,16,-1.6
Cc1ccc(S(=O)(=O)N2CCC(C(=O)OCC(=O)N(Cc3ccccc3)C(C)C)CC2)cc1C,3,-1,2.7
C[C@@H]1CN([C@H](C)CO)C(=O)c2cc(NS(C)(=O)=O)ccc2O[C@@H]1CN(C)C(=O)NC1CCCCC1,3,4,-0.1
CCC(=O)N1[C@@H]2c3ccc(-c4ccccc4OC)c(=O)n3C[C@@H]2[C@@H](CO)[C@@H]1C(=O)NCCCN(C)C,3,15,0.2
CCOc1ccc(CCNC(=O)COC(=O)c2n[nH]c3ccccc23)cc1OCC,1,-1,-2.8
O=C(C[C@H]1CC[C@@H]2[C@H](COC[C@@H](O)CN2CCc2ccccc2)O1)NCc1ccc(F)cc1,1,-3,2.4
CO[C@@H]1CN(C)C(=O)c2cc(NC(=O)NC(C)C)ccc2OC[C@@H](C)NC[C@@H]1C,2,-2,-5.2
COCC#Cc1cnc2c(c1)C(=O)N([C@@H](C)CO)C[C@@H](C)[C@H](CN(C)C(=O)c1cccnc1)O2,1,-3,-1.4
O=C(C[C@H]1CC[C@H](NS(=O)(=O)c2ccccc2)[C@@H](CO)O1)N1CCc2ccccc2C1,3,0,-2.0
C[C@H]1CN([C@@H](C)CO)C(=O)c2cc(NC(=O)Nc3ccc(F)cc3)ccc2O[C@H]1CN(C)C(=O)Nc1ccc(F)cc1,-3,-9,2.3
C[C@@H]1CN([C@@H](C)CO)C(=O)Cc2cc(NC(=O)C3CC3)ccc2O[C@@H]1CN(C)C(=O)NC1CCCCC1,3,7,-0.1
CNC[C@H]1Oc2ccc(NC(=O)NC3CCCCC3)cc2C(=O)N([C@@H](C)CO)C[C@@H]1C,2,10,-3.3
C[C@@H]1CN([C@H](C)CO)C(=O)c2cc(C3=CCCCC3)cnc2O[C@@H]1CN(C)Cc1ccccc1,1,6,1.9
CCCC#Cc1cnc2c(c1)C(=O)N([C@H](C)CO)C[C@H](C)[C@@H](CN(C)C(=O)Nc1ccccc1OC)O2,1,-1,2.1
Cc1ccc(S(=O)(=O)N[C@@H]2C=C[C@H](CC(=O)N3CCc4ccccc4C3)O[C@@H]2CO)cc1,-6,-14,1.3
COCCNC(=O)C1(C)CCCN(C(=O)c2cccc(C#N)c2)C1 (stereo unspecified),9,11,-0.3
COc1cccc(C(=O)Nc2ccc3c(c2)OC[C@@H](C)N(C(=O)C2CCCC2)C[C@H](C)[C@H](OC)CN(C)C3=O)c1,-5,-7,1.1
COc1ccc(C=CC(=O)c2ccc(OC)c(OC)c2)cc1O,-5,-1,2.1
Clc1cccc(CN2CCN(c3ncc(Cc4ccccc4)cn3)CC2)c1Cl,-3,12,5.4
CC(C)NC(=O)N(C)C[C@@H]1Oc2c(NC(=O)Nc3cccc4ccccc34)cccc2C(=O)N([C@H](C)CO)C[C@H]1C,-7,-9,-1.1
C[C@@H]1CN([C@H](C)CO)C(=O)Cc2cc(NS(=O)(=O)c3ccccc3)ccc2O[C@H]1CN(C)CC1CCCCC1,-2,-7,1.1
C[C@H](CO)N1C[C@H](C)[C@H](CN(C)S(=O)(=O)c2cccs2)Oc2ccc(NC(=O)Nc3ccccc3)cc2CC1=O,0,-13,-0.4
CN1C(=O)c2cc(NC(=O)c3cccs3)ccc2OC[C@H]2O[C@@H](CC(=O)Nc3ccc4c(c3)COC4)CC[C@@H]21,1,10,-0.7
O=C(c1cccc(F)c1)N1CC2(C1)[C@H](c1ccccc1)[C@@H](CO)N2C(=O)C1CCCC1,-1,-4,0.5
Cc1ccc(N2CC(C(=O)Nc3cc(S(=O)(=O)N4CCCCC4)ccc3C)CC2=O)cc1 (stereo unspecified),1,-17,15
COC(=O)C[C@H]1C=C[C@H](N)[C@H](CO)O1,2,18,-4.1
CC1(C)N=C(N)N=C(N)N1c1ccc(OCC(=O)Nc2ccccc2)c(Cl)c1,0,15,-1.0
COc1ccc(-c2ccc3n(c2=O)C[C@H]2[C@H](CO)[C@@H](C(=O)N(C)C)[C@@H]3N2Cc2ccncc2)cc1,1,8,0.0
CCCN(C)C[C@H]1Oc2cc(C#C[C@@H](C)O)ccc2S(=O)(=O)N([C@@H](C)CO)C[C@H]1C,4,4,-3.7
CC(=O)N[C@H]1CC[C@@H](CC(=O)NCC2CCCCC2)O[C@@H]1CO,-1,-5,0.6
C[C@@H]1CCCCO[C@H](CN(C)Cc2ccncc2)[C@H](C)CN([C@H](C)CO)C(=O)c2cc(NC(=O)Nc3ccc(C(F)(F)F)cc3)ccc2O1,-3,-20,6.0
COc1ccc2c3c([nH]c2c1)[C@@H](CO)NCC31CCN(C(=O)C2CCOCC2)CC1,-1,-8,0.3
CO[C@@H]1CN(C)C(=O)c2ccc(NC(C)=O)cc2OC[C@H](C)N(Cc2cncnc2)C[C@@H]1C,6,7,1.2
CCCC(=O)Nc1ccc2c(c1)OC[C@@H](C)N(S(=O)(=O)c1cn(C)cn1)C[C@H](C)[C@H](OC)CN(C)C2=O,5,8,-1.8
CCCC#Cc1ccc2c(c1)O[C@H](CN(C)Cc1ccccc1)[C@H](C)CN([C@H](C)CO)S2(=O)=O,-12,-30,4.2
C[C@@H]1CN([C@@H](C)CO)C(=O)CCCn2cc(nn2)CO[C@@H]1CN(C)S(=O)(=O)c1cccc(C#N)c1,1,1,-0.8
C[C@@H]1C/C=C\C[C@H](c2ccc3c(c2)OCO3)NC(=O)[C@@H](c2ccccc2)CC(=O)N1,5,-1,-1.0
C[C@H](CO)N1C[C@H](C)[C@H](CN(C)C(=O)NC2CCCCC2)Oc2cc(-c3cccnc3)ccc2S1(=O)=O,-3&-3,1&1,-2.0&1.4
O=C(Nc1ccc(F)cc1)N1C[C@H]2[C@@H](c3ccccc31)[C@@H](CO)N2C(=O)c1ccncc1,2,11,-0.4
COc1ccc(NC(=O)COC(=O)C2COc3ccccc3O2)cc1 (stereo unspecified),7,11,-2.9
COc1ccccc1-c1ccc2c(c1)O[C@H](CN(C)C(=O)c1ccccc1)[C@H](C)CN([C@H](C)CO)S2(=O)=O,-7,-26,3.6
C[C@@H]1CN([C@H](C)CO)C(=O)c2cc(NS(=O)(=O)c3ccccc3)ccc2O[C@@H]1CN(C)C(=O)Nc1cccc2ccccc12,0,-5,0.0
CN(C)CC(=O)N1[C@@H](C#N)[C@H](c2ccc(-c3cccc(C(=O)N(C)C)c3)cc2)[C@@H]1CO,8,8,-1.0
N#Cc1ccc(-c2ccc([C@@H]3[C@@H](CO)N4CCCCN(C(=O)Nc5ccc(F)cc5)C[C@H]34)cc2)cc1,-54,-74,-12
CNC[C@@H]1Oc2c(N)cccc2C(=O)N(C)C[C@@H]1C,1,3,2.3
CCS(=O)(=O)N1CC2(C1)[C@H](c1ccccc1)[C@H](CO)N2C(=O)C1CCCC1,-1,-2,-1.1
CC(C)C#Cc1ccc([C@@H]2[C@@H](CO)N3C(=O)CN(C(=O)c4ccccn4)C[C@@H]23)cc1,3,4,2.5
C[C@H]1CN([C@@H](C)CO)C(=O)c2cccc(NC(=O)Nc3ccccc3)c2O[C@H]1CN(C)C(=O)Nc1cccc2ccccc12,-11,-6,0.0
C[C@H]1CCCCO[C@H](CN(C)Cc2ccccc2)[C@@H](C)CN([C@@H](C)CO)C(=O)c2cc(NS(=O)(=O)c3ccc(Cl)cc3)ccc2O1,-9,-57,31
CN(C)c1ccc2c(c1)[C@H]1C[C@@H](CC(=O)NCC3CC3)O[C@@H](CO)[C@H]1O2,1,8,0.1
CCC(=O)N1CCC2(CC1)CN(C(=O)Nc1ccccc1F)[C@H](CO)c1[nH]c3cc(OC)ccc3c12,-5,-1,3.0
COc1ccc2c3c(n(C)c2c1)[C@@H](CO)NCC31CCN(C(C)=O)CC1,4,14,-0.5

# Part of the list above, with bars between the fields.
Compound | Ecoli rRNA inh | Ecoli rRNA inh OD600 | Ecoli rRNA inh RFP
C[C@@H]1CN([C@H](C)CO)C(=O)c2cc(NS(=O)(=O)c3ccccc3)ccc2O[C@@H]1CN(C)C(=O)Nc1cccc2ccccc12 | 0 | -5 | 0.0
CN(C)CC(=O)N1[C@@H](C#N)[C@H](c2ccc(-c3cccc(C(=O)N(C)C)c3)cc2)[C@@H]1CO | 8 | 8 | -1.0
N#Cc1ccc(-c2ccc([C@@H]3[C@@H](CO)N4CCCCN(C(=O)Nc5ccc(F)cc5)C[C@H]34)cc2)cc1 | -54 | -74 | -12
CNC[C@@H]1Oc2c(N)cccc2C(=O)N(C)C[C@@H]1C | 1 | 3 | 2.3
CCS(=O)(=O)N1CC2(C1)[C@H](c1ccccc1)[C@H](CO)N2C(=O)C1CCCC1 | -1 | -2 | -1.1
CC(C)C#Cc1ccc([C@@H]2[C@@H](CO)N3C(=O)CN(C(=O)c4ccccn4)C[C@@H]23)cc1 | 3 | 4 | 2.5
C[C@H]1CN([C@@H](C)CO)C(=O)c2cccc(NC(=O)Nc3ccccc3)c2O[C@H]1CN(C)C(=O)Nc1cccc2ccccc12 | -11 | -6 | 0.0
C[C@H]1CCCCO[C@H](CN(C)Cc2ccccc2)[C@@H](C)CN([C@@H](C)CO)C(=O)c2cc(NS(=O)(=O)c3ccc(Cl)cc3)ccc2O1 | -9 | -57 | 31
CN(C)c1ccc2c(c1)[C@H]1C[C@@H](CC(=O)NCC3CC3)O[C@@H](CO)[C@H]1O2 | 1 | 8 | 0.1
CCC(=O)N1CCC2(CC1)CN(C(=O)Nc1ccccc1F)[C@H](CO)c1[nH]c3cc(OC)ccc3c12 | -5 | -1 | 3.0
COc1ccc2c3c(n(C)c2c1)[C@@H](CO)NCC31CCN(C(C)=O)CC1 | 4 | 14 | -0.5

# Next part.
SMILES,Ecoli rRNA inh,Ecoli rRNA inh OD600,Ecoli rRNA inh RFP
COc1ccc(OC(=O)N(C)C[C@@H]2OCc3ccccc3-c3ccccc3C(=O)N([C@@H](C)CO)C[C@@H]2C)cc1,-4,2,1.2
C[C@H](CO)N1C[C@H](C)[C@@H](CN(C)C(=O)Nc2ccc3c(c2)OCO3)OCCCC[C@H](C)Oc2ccc(NC(=O)CCC(F)(F)F)cc2C1=O,-6,-12,-0.6
C[C@H](CO)N1C[C@H](C)[C@H](CN(C)C(=O)Cc2cccnc2)Oc2ncc(-c3ccncc3)cc2C1=O,2,-3,-2.4
C[C@@H]1CN([C@H](C)CO)C(=O)c2c(c3ccccc3n2C)-c2ccccc2CO[C@@H]1CN(C)C(=O)Cc1ccccc1,3,-8,5.8
CC(=O)Nc1cccc2cc(S(=O)(=O)O)ccc12,6,19,6.0
Cc1noc(C)c1S(=O)(=O)N(C)C[C@H]1Oc2c(NC(=O)c3ccc(-c4nccs4)cc3)cccc2C(=O)N([C@H](C)CO)C[C@H]1C,-5,0,-1.2
CNC[C@@H]1Oc2c(NC(=O)Nc3ccc(C(F)(F)F)cc3)cccc2C(=O)N([C@H](C)CO)C[C@@H]1C,-2,-12,2.0
O=C(c1ccccc1F)N1CC2(C1)[C@H](c1ccccc1)[C@H](CO)N2CC1CCOCC1,-2,5,1.3
COc1ccc(OC2(C)CCN(Cc3ccccc3OC(F)F)C2)cc1 (stereo unspecified),1,-2,2.9
C[C@@H]1CN([C@H](C)CO)C(=O)c2cc(NC(=O)Nc3ccc4c(c3)OCO4)ccc2O[C@@H]1CN(C)C,0,1,-1.0
CN1c2ccc(-c3cccc(C#N)c3)cc2[C@@H]2[C@@H](CCN2C(=O)NC2CCCC2)[C@H]1CO,-3,-14,-2.1
CCCNC(=O)N1CC2(C1)[C@H](c1ccccc1)[C@H](CO)N2Cc1ccc(Cl)cc1,-9,-20,-2.4
Cc1noc(C)c1NC(=O)N(C)C[C@H]1Oc2ccc(NC(=O)Nc3cccc4ccccc34)cc2C(=O)N([C@H](C)CO)C[C@H]1C,1,3,3.7
COc1ccc(NC(=O)N(C)C[C@@H]2OCCCC[C@H](C)Oc3ccc(NS(C)(=O)=O)cc3C(=O)N([C@@H](C)CO)C[C@H]2C)cc1,2,7,-0.3
CCC(=O)Nc1ccc2c(c1)OC[C@H](C)N(C(=O)c1ccccc1F)C[C@@H](C)[C@H](OC)CN(C)C2=O,1,2,-1.6
